Compound activity: PubChem, National Center for Advancing Translational Sciences (NCATS)
Rango complex inh = prevents formation of the Rango-importin beta complex | AID 540263 | actives 0.031% (n = 340,000) | Potency, µM (highest dose often 92.2 µM), for inactives: top-dose inhibition of complex formation | Rango CFP/YFP FRET sensor + importin beta, 45 min | Q14974; active = rising FRET ratio curve, often small or poorly fitted; inconclusive = mostly compound fluorescence or quenching in the first reads; inactive = flat curves in all reads;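 further: potency means the concentration at half of the fitted maximal effect; 0% = DMSO wells and 100% = buffer wells lacking importin beta; nearly all actives have a fitted effect of over 15% in size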
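FRET biosensor Rango (snurportin 1 IBB between N-terminal EYFP and C-terminal Cerulean), 50 nM in PBS/1 mM DTT/0.02% Tween-20/0.1% BSA, preincubated 5 min RT with compound; 0.125 microM importin beta added, 45 min RT, CFP/YFP FRET ratio read.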
miR-21 reporter = raises the signal of a miR-21 reporter | Potency, µM (top dose mostly 38.3 µM), for the others: at the top dose reporter change, positive = more light | 340,000 tested, under 10 active | AID 2288 | HeLa miR-21 FLuc reporter, luciferase, 48 h; active = well fitted rising curve with a large enough effect; inconclusive = small, poorly fitted or top-dose-only effect; inactive = no such curve, though single readings can be large or run the other way;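 further: % of control where 0% means no effect; miR-21 action dims this reporter so a rising signal means less miR-21 action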
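Luminescence from a firefly luciferase reporter carrying a miR-21 binding site downstream, stably expressed under a CMV promoter in HeLa cells that make miR-21 endogenously, reports miRNA modulation after 48 h compound exposure up to approximately 40uM final.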
Rango dissoc inh = prevents RanGTP from dissociating the Rango-importin beta complex; O95149+P62826; Biochemical FRET Rango-importin beta, RanGTP-induced dissociation; Potency, µM (top dose mostly 46.1 µM), for inactives: at the top dose activity change, negative = inhibition; actives 0.071% (n = 340,000); AID 540253; active means falling FRET ratio curve, often poorly fitted, with flat reads before Ran was added; inconclusive means other falling curves, or compound fluorescence or quenching; inactive means flat or rising ratio curve;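 further: potency means the concentration at half of the fitted maximal effect; % of control where 0% means no effect; nearly all actives have a fitted effect of over 45% in size; -100% = wells without RanGTP and RCC1; the record marks most hits as doubtful in a second field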
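Quantitative HTS using a FRET biosensor: 0.1 uM Rango, 0.25 uM importin beta, 0.6 uM Ran, 2 mM GTP, 0.2 uM RCC1 final, PBS with DTT, Tween-20 and BSA. Post-read taken 45 min after Ran addition.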
GLA inh pH 4.5 = inhibitors of human alpha-galactosidase A at pH 4.5. purified enzyme, 4-MU-alpha-Gal fluorescence, pH 4.5. activity change, negative = inhibition, % at 105 µM. 230,000 tested, under 10 active. AID 1467; inconclusive = small, poorly fitted or top-dose-only inhibition, or a rising curve; inactive = flat fitted curve, though single readings scatter; no compound was filed as active;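 further: 0% = full activity with enzyme and -100% = basal without enzyme; dose as in the result columns while the protocol names 77 µM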
Target sequence (P06280 whole entry, looked up): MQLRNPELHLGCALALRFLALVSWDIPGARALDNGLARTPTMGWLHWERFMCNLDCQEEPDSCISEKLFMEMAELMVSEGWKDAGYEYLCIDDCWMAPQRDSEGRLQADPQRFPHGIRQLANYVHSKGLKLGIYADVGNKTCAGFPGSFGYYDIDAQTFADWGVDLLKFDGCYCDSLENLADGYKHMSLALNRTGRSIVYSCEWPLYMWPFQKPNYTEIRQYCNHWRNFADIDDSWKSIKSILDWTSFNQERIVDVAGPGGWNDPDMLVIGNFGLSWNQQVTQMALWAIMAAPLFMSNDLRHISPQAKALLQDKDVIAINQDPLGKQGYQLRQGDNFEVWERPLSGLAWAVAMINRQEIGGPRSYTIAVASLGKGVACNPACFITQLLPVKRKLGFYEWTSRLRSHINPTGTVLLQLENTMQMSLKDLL
An asterisk follows results filed as active; u = inconclusive; x = not tested or not shown; [ ] = dose if it differs, or a comment.

SMILES	Rango complex inh	miR-21 reporter	Rango dissoc inh	GLA inh pH 4.5
CC(=O)c1cccc(NC(=O)CSc2n[nH]c(=O)n2C2CC2)c1	-3.4%	x	0%	x
Cc1ccc(CNC(=O)CSc2ccsc2[N+](=O)[O-])cc1	-3.6%	-46%	-7%	5
O=S(=O)(NC(=S)c1ccccc1)c1ccc(F)cc1	4.1%	-3%	u	x
O=C(NCCc1ccccc1)c1ccc2c(=O)[nH]c3c(C(=O)NCC4CCCO4)sc(=S)n3c2c1 (stereo not drawn)	u	-11%	-2%	x
COc1ccc2c(c1)c(C(=O)CN1CCN(Cc3ccccc3)CC1)c(C)n2C	3.7%	5%	-19%	3
CC1CCCC(NC(=O)COC(=O)c2ccc3c(c2)OCCO3)C1C (stereo not drawn)	1.8%	x	-1%	x
COCCCn1c(C)nnc1-c1cnn(-c2ccccc2)c1N	-1.1%	-12%	3%	4
CC(=O)NS(=O)(=O)c1ccc(NC(=O)CCC2CCCC2)cc1	4.9%	-2%	-3%	-4
Cc1cc(C(=O)CSc2nc3ccccc3c(=O)n2C)c(C)n1Cc1ccc2c(c1)OCO2	2.3%	2%	-7%	12
O=C1NC2(CCCC2)C(=O)N1CCS(=O)(=O)Oc1ccccc1	-0.2%	-5%	5%	-14

In another format: entries from further up
Every second line gives: Rango complex inh	miR-21 reporter	Rango dissoc inh	GLA inh pH 4.5
CC1CCCC(NC(=O)COC(=O)c2ccc3c(c2)OCCO3)C1C (stereo not drawn)
  1.8%	x	-1%	x
COCCCn1c(C)nnc1-c1cnn(-c2ccccc2)c1N
  -1.1%	-12%	3%	4

Following part.
SMILES	Rango complex inh	miR-21 reporter	Rango dissoc inh	GLA inh pH 4.5
CN(C)c1cc[n+](CC(=O)c2ccc(Br)cc2)cc1	-4.2%	20%	24%	-20
O=C(N/N=C/c1ccc(Sc2ccccn2)o1)c1cccc([N+](=O)[O-])c1	7.1%	1%	7%	-12
COc1ccc(S(=O)(=O)N/N=C\c2ccccc2F)cc1	-0.9%	-2%	5%	x
CCN(CC(=O)Nc1c(F)cccc1F)C(=O)c1ccc(=O)n(Cc2ccccc2)n1	-0.9%	-4%	-3%	x
COc1cccc(NC(=O)CN(C)CC(=O)c2c(N)n(Cc3ccccc3)c(=O)n(C)c2=O)c1	-2.2%	x	14%	x
O=C(Nc1ccccc1O)c1c(O)c2c([nH]c1=O)CCCC2	0.6%	-53%	2%	8
Cc1nc(N)nc(COc2ccccc2)n1	0.5%	-36%	6%	0
Cc1cc[n+](Cc2ccc([N+](=O)[O-])cc2)cc1	-0.6%	-12%	10%	-9
Cc1ccc(CCNC(=O)CN2C(=O)COc3ccccc32)cc1	-0.5%	-7%	0%	u
Cc1sc2ncnc(Sc3nc4ccccc4s3)c2c1C	x	-1%	x	4
CCOc1ccc(N2C(=O)Nc3ccccc3C2(O)C(=O)N2CCN(c3ccccn3)CC2)cc1 (stereo not drawn)	-1.0%	-1%	12%	-3
CCCNC(=O)NC1CCCc2ccccc21 (stereo not drawn)	u	-1%	1%	-3
N#Cc1cc2c(nc1SCc1cccnc1)CCCCC2	-4.0%	-56%	13%	3
Cc1oc(S(=O)(=O)N2CCOCC2)cc1C(=O)Nc1ccc(Cl)cc1	-0.5%	0%	-5%	10
Cc1cccc(C)c1NS(=O)(=O)c1ccc(OCCNS(C)(=O)=O)cc1	-0.6%	10%	14%	0
O=C(c1ccc(NS(=O)(=O)c2ccc(F)cc2)cc1)N1CCCCCC1	-3.5%	x	-11%	x
O=C(COc1ccc(Cl)cc1Cl)N1CCCCCC1	7.4%	-37%	0%	6
COc1ccc(CCNC(=O)c2ccc(CN3CCC(Cc4ccccc4)CC3)cc2)cc1	u	-1%	-7%	-10
O=C(Nc1nnc(-c2cc(Cl)ccc2Cl)o1)c1ccco1	3.4%	x	30%	x
CN1CCN(C(=O)c2ccc3c(c2)NC(=O)/C(=C/c2ccccc2)S3)CC1	-1.2%	20%	-3%	x
O=C1C2C3c4ccccc4C(c4ccccc43)C2C(=O)N1CN1CCOCC1 (stereo not drawn)	3.6%	-4%	15%	-8
Cc1ccc(NC(=O)N2CCCC2c2cccs2)cc1 (stereo not drawn)	u	-42%	-7%	6
Cc1ccc(C(=O)NC2CCCCCCC2)c(Cl)c1	4.0%	-1%	-4%	x
O=C1C2C3C=CC(C3)C2C(=O)N1c1ncn[nH]1 (stereo not drawn)	-3.6%	-1%	-6%	4
OC(c1ccccc1)C1CN(Cc2ccccc2)CCC1(O)c1ccccc1 (stereo not drawn)	6.9%	1%	-1%	0
COc1cc(/C=N/NC(=O)CCC(=O)Nc2ccc(F)cc2)ccc1O	-3.9%	-3%	-10%	x
CN(CC(=O)NCCc1ccccc1)S(=O)(=O)c1ccc(Br)cc1	0.6%	0%	1%	-5
O=C1CCCCN1CCCC(=O)N1CCCC(Nc2ccccc2)C1 (stereo not drawn)	0.1%	-1%	-4%	x
CCOC(=O)/C(C#N)=C\c1c(C)cc(C)c(COC(C)=O)c1C	2.7%	-19%	-14%	3
Cc1[nH]c(=S)c(C#N)c(-c2ccco2)c1C(=O)N(C)C	-0.6%	-4%	21%	3
Cc1noc(C)c1COC(=O)C1COc2ccccc2O1 (stereo not drawn)	-3.4%	-5%	0%	12
Cc1ccc(OCC(=O)Nc2cccc(-c3nnc(-c4ccccc4)o3)c2)cc1	u	-23%	-6%	-2
CC(C(=O)NCC1CCCCC1)N1CCc2ccccc2C1 (stereo not drawn)	1.1%	0%	-5%	10
Cn1c(CCN2CCOCC2)nc2cc(NC(=O)c3cccs3)ccc21	1.5%	1%	1%	0
Cc1nc([N+](=O)[O-])c(Br)n1Cc1ccccc1	1.1%	27%	-6%	-1
O=c1oc(/C=C/c2ccccc2)nc2sc3c(c12)CCC3	-9.8%	-5%	2%	-6
Cc1ccc(NC(=O)c2nc[nH]c2C(=O)NCCCCNC(=O)c2[nH]cnc2C(=O)Nc2ccc(C)cc2)cc1	-2.1%	x	8%	x
O=C(Nc1nc(-c2ccccn2)cs1)c1cc2ccccc2o1	-0.5%	9%	-6%	-5
C[C@@H]1NC(=O)c2cc([N+](=O)[O-])cc(I)c2NCCCC[C@@H](C(N)=O)NC(=O)[C@H](CC(N)=O)NC1=O	-1.8%	0%	18%	6
Cc1ccc(S(=O)(=O)NCC(=O)OCC(=O)NC(=O)c2cccn2C)cc1	u	-2%	-12%	-4

Overlap with the part before: 7 compounds, then new ones.
SMILES	Rango complex inh	miR-21 reporter	Rango dissoc inh	GLA inh pH 4.5
Cn1c(CCN2CCOCC2)nc2cc(NC(=O)c3cccs3)ccc21	1.5%	1%	1%	0
Cc1nc([N+](=O)[O-])c(Br)n1Cc1ccccc1	1.1%	27%	-6%	-1
O=c1oc(/C=C/c2ccccc2)nc2sc3c(c12)CCC3	-9.8%	-5%	2%	-6
Cc1ccc(NC(=O)c2nc[nH]c2C(=O)NCCCCNC(=O)c2[nH]cnc2C(=O)Nc2ccc(C)cc2)cc1	-2.1%	x	8%	x
O=C(Nc1nc(-c2ccccn2)cs1)c1cc2ccccc2o1	-0.5%	9%	-6%	-5
C[C@@H]1NC(=O)c2cc([N+](=O)[O-])cc(I)c2NCCCC[C@@H](C(N)=O)NC(=O)[C@H](CC(N)=O)NC1=O	-1.8%	0%	18%	6
Cc1ccc(S(=O)(=O)NCC(=O)OCC(=O)NC(=O)c2cccn2C)cc1	u	-2%	-12%	-4
Clc1ccc(N/N=C/c2cccs2)nn1	-3.7%	-33%	11%	0
Cc1nc2c(-c3ccc(F)cc3)c(C)nn2c(C)c1CCC(=O)Nc1ccccc1	-4.4%	1%	u	-2
Cc1ccc(CNC(=O)C2CC(=O)N(c3ccc(OCC(=O)N4CCCC4)cc3)C2)cc1 (stereo not drawn)	-3.4%	-5%	12%	-8
Cc1cc(Cl)ccc1OCC(=O)OCC(=O)N(CC(C)C)c1c(N)n(Cc2ccccc2)c(=O)[nH]c1=O	-2.9%	x	-7%	x
CCCCCCN(C(=O)CCCCCN1C(=O)NC(c2ccc(-c3ccccc3)cc2)C(C(=O)OCc2ccccc2)=C1C)C(C(=O)NCCCC)c1ccc(OCC(=O)OC)c(C(=O)OC)c1 (stereo not drawn)	x	-1%	x	-6
O=C(NC1=NCCS1)c1ccccc1Br	1.5%	x	-1%	x
COc1ccccc1NC(=O)Cc1nnc(SCC(=O)NC2CCCCC2)n1C	2.7%	0%	3%	x
S=C(NCCc1ccccc1)NC1CCC(NC(=S)NCCc2ccccc2)CC1 (stereo not drawn)	-0.2%	0%	-2%	2
N/C(Cc1ccc(Cl)cc1Cl)=N\OC(=O)c1cccs1	0.4%	-14%	2%	-4
CC(C)c1nnc(NC(=O)c2cccs2)s1	1.6%	-47%	0%	-2
Cn1cnnc1SCC(=O)Nc1ccc(S(=O)(=O)N2CCCC2)cc1	-5.2%	0%	16%	12
CC1(c2nnc(-c3ccc(Cl)cc3)o2)CC(c2cccnc2)=NO1 (stereo not drawn)	-2.0%	x	-17%	x
COc1ccc(OC)c(/C=N/NC(=O)c2ccncc2)c1	0.4%	1%	17%	x
Cn1cccc1C(=O)NC(=O)COC(=O)CNC(=O)c1ccc(Cl)cc1Cl	-0.3%	1%	2%	-12[21.1 µM]
Cc1nn(CC(=O)c2cccc(Cl)c2)c(C)c1[N+](=O)[O-]	-3.1%	-14%	-25%	3
CCC(Oc1ccc(Br)cc1Cl)C(=O)Nc1nnc(C2CC2)s1 (stereo not drawn)	-1.0%	4%	-8%	x
CC1CCCCC1NC(=O)CSc1nnc(-c2ccccc2)n1N (stereo not drawn)	0.9%	-1%	8%	-3
COc1cc(CNCc2ccccn2)ccc1OCc1ccc(Cl)cc1Cl	0.3%	-5%	-2%	-2
CC(Sc1ccc2ccccc2c1)C(=O)NC(N)=O (stereo not drawn)	1.3%	-8%	-2%	-4
COc1ccc([N+](=O)[O-])cc1NC(=O)CSCc1ccccc1C	2.6%	0%	3%	1
COc1ccccc1Nc1cc(C)nc2c(C)ccc([N+](=O)[O-])c12	-3.1%	-19%	-3%	-8
CN1c2ccccc2Oc2nnc(Cl)cc21	2.8%	-24%	11%	11
Oc1ccccc1CN1CCC(C(O)(c2ccccc2)c2ccccc2)CC1	0.1%	5%	7%	-15

Rewritten with two lines to a compound: entries from further up
Screens in order – Rango complex inh, miR-21 reporter, Rango dissoc inh, GLA inh pH 4.5
CC(Sc1ccc2ccccc2c1)C(=O)NC(N)=O (stereo not drawn)
→ 1.3%, -8%, -2%, -4
COc1ccc([N+](=O)[O-])cc1NC(=O)CSCc1ccccc1C
→ 2.6%, 0%, 3%, 1
COc1ccccc1Nc1cc(C)nc2c(C)ccc([N+](=O)[O-])c12
→ -3.1%, -19%, -3%, -8

Arranged by the number under Rango dissoc inh (ascending): some entries from above
Molecule | Rango dissoc inh
CC(=O)c1cccc(NC(=O)CSc2n[nH]c(=O)n2C2CC2)c1 | 0%
O=C(Nc1ccccc1O)c1c(O)c2c([nH]c1=O)CCCC2 | 2%
N#Cc1cc2c(nc1SCc1cccnc1)CCCCC2 | 13%

These rows are one share of the data; rates above refer to the full screens.
